Assay outcomes deposited in PubChem by National Center for Advancing Translational Sciences (NCATS).
Six1-Eya2 inh = inhibitors of human Six1/Eya2 interaction; Q15475+O00167; AlphaScreen GST-Six1/His-Eya2 binding, biochemical; active compounds read low; control for the full effect not named in the record; activity change, % (concentration not given with the values); 360,000 tested, 0.56% active; AID 651725; in the data active = activity change below about -65%; inconclusive = about -30% to -65%; inactive = above about -30%; further: on the % scale 0 is the no-effect control and ±100 the full control effect
Target sequence (O00167 whole entry, looked up): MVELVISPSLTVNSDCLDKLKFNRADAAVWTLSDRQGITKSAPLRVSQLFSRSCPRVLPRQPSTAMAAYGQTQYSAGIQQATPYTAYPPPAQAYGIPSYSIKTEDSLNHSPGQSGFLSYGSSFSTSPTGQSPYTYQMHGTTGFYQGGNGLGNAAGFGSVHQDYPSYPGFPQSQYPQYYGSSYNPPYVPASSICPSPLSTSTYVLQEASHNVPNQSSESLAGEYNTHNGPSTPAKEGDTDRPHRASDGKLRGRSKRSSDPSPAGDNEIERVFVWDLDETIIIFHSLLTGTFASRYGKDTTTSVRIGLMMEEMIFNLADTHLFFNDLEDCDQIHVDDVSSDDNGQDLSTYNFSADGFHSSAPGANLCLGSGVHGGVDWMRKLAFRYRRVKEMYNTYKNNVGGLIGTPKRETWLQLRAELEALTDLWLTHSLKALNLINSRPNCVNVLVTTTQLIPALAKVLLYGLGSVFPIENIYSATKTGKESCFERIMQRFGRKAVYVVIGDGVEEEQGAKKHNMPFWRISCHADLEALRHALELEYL
Target sequence (Q15475 whole entry, looked up): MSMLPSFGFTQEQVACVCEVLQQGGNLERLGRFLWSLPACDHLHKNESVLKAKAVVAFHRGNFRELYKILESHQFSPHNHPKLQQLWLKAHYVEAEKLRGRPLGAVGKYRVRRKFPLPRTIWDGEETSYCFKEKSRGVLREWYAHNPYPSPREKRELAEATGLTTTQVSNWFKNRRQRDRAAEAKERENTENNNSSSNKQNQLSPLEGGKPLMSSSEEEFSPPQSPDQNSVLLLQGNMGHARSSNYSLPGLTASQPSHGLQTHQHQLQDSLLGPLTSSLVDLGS
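Homogeneous AlphaScreen proximity assay pairing GST-Six1 with His-tagged Eya2 (added as 5X mix: 250 nM and 500 nM) in 50 mM Tris pH 8.0, 300 mM NaCl, 1 mM TCEP. Glutathione donor and nickel acceptor beads; 1 h, 37 °C, dark.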
D2 ag = activates the human D2 dopamine receptor; AID 624465; activation, % (test concentration not listed); P14416; DiscoveRx PathHunter D2 beta-arrestin, luminescence, 90 min; 100% = 57 uM dopamine signal; 360,000 tested, 0.084% active; in the data active = activation above about 40%; inconclusive = about 15% to 40%; inactive = below about 15%; further: compound concentration not given in the record; the text of the record calls up to 30% inactive
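DiscoveRx PathHunter D2 beta-arrestin cells (2,100/well) attached overnight, then compound-stimulated 90 min at 37 C in HBSS/10 mM HEPES/0.1% Tween-20 buffer; beta-galactosidase complementation read by luminescence after 1 h at ambient temperature. Dopamine 57 uM final (EC100) as control.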
gsp agonist = agonists of gsp mutant (McCune-Albright syndrome); AID 624287; 340,000 tested, 0.13% active; gsp mutant cells, cAMP HTRF, 30 min; control for the full effect not named in the record; Potency, µM (titrated, usually from 76.9 µM), for the others: top-dose activation (cAMP increase), hits mostly activators; active = well fitted activation curve with a large enough effect; inconclusive = small, poorly fitted or top-dose-only effect, or another doubt; inactive = no such curve, though single readings can be large or run the other way; cell line not stated here;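 further: phosphodiesterase inhibitor Ro 20-1724 added with compounds to block cAMP breakdown; potency means the concentration at half of the fitted maximal effect; nearly all actives have a fitted effect of over 60% in size; about a fifth of the inactives were tested at one dose only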
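Cells in DMEM/10% FBS with G418 were pretreated with compounds in DMSO plus […] (300 uM stock) for 30 min at 37C. cAMP was measured by HTRF (cAMP-d2 plus anti-cAMP antibody-K) after 30 min at room temperature.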
gsp antagonist = antagonists of gsp mutant (McCune-Albright syndrome); 340,000 tested, 0.4% active; gsp-mutant cells, cAMP HTRF, 30 min; control for the full effect not named in the record; Potency, µM (top dose mostly 76.9 µM), for inactives: at the highest dose activity change, negative = inhibition, hits mostly inhibitors; active = falling curve of any shape with a large fitted effect; inconclusive = falling curve, mostly with a smaller effect; inactive = flat or rising curve; cell line not stated here;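 further: intracellular cAMP measured with PDE inhibitor Ro 20-1724 present during compound exposure; potency means the concentration at half of the fitted maximal effect; on the % scale 0 is the no-effect control and ±100 the full control effect; nearly all actives have a fitted effect of over 65% in size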
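Cells in G418 medium, seeded 16-24 h, 37C; buffer exchange to DPBS + 1 mM CaCl2, 0.5 mM MgCl2, 0.05% BSA; cpds in DMSO + […] (300 uM stock), 30 min 37C; HTRF cAMP detection.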
D2 PAM = potentiates the human D2 dopamine receptor allosterically | DiscoveRx D2 beta-arrestin cells, luminescence, 90 min; 100% = 57 uM dopamine signal | potentiation, % (no concentration beside the values) | P14416 | 360,000 tested, 0.23% active | AID 624464; active = potentiation of 50% or more; inconclusive = 30% to 50%; inactive = 30% or less;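 further: compound concentration not given in the record; tested on top of an EC20 dose of dopamine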
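PathHunter beta-arrestin assay in DiscoveRx D2 cells. Compounds were added with an EC20 of dopamine (50 nM final) for 90 min at 37 deg C. Luminescence was read 1 h after detection reagent, with 57 uM dopamine as the EC100 control.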
CtBP-E1A inh = blocks the CtBP interaction with E1A; AlphaScreen GST-E1A/His-CtBP binding, 1536-well; active compounds read low; control for the full effect not named in the record; 340,000 tested, 0.49% active; activity change, % (concentration not given with the values); AID 651724; in the data active means activity change below about -65%; inconclusive means about -30% to -65%; inactive means above about -30%; further: on the % scale 0 is the no-effect control and ±100 the full control effect
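GST-E1A and His-tagged CtBP (125 nM each as 5X stock) were preincubated with pin-transferred compound for 2 h at 37 °C in the dark, then glutathione donor and nickel acceptor beads were added for 1 h before AlphaScreen reading.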
Active calls of the source: *; ? = inconclusive; . = not tested or not shown; [ ] = another dose, or the depositor's remark.

Structure	D2 PAM	Six1-Eya2 inh	D2 ag	gsp agonist	CtBP-E1A inh	gsp antagonist
Cn1cccc1CC(=O)N/N=C/c1cc([N+](=O)[O-])ccc1Cl	-15.2	-14.2	-0.8	-1.6%[15.4 µM]	-10.3	-13.5%
C[C@H]1CN=C(N(C)C)N1CCCC1CCCC1	-11.5	6.2	-2.8	.	9.0	12.1%
Fc1cccc(Cc2c(-c3cccc(Br)c3)nc3ccc(Br)cn23)c1	4.9	-1.8	-0.5	.	5.8	.
Cc1nonc1NC(=O)CSc1nc(CCC2CCCC2)nc2ccccc12	-10.5	-3.7	-3.6	20µM*	.	-11.2%
COc1ccc(-n2ncc3c2CC(C)(C)CC3NC(=O)c2oc(C)cc2C)cc1 (stereo not drawn)	1.4	1.9	-5.6	21.1%	4.0	?
COc1ccc(C(=O)NC(=S)Nc2ccccc2[N+](=O)[O-])cc1OC	0.1	-4.6	0.2	-10.5%[15.4 µM]	-6.3	-0.5%
Cc1ccc(C)c(N2CCN(S(=O)(=O)c3ccc4c(c3)OCCO4)CC2)c1	2.9	-0.4	-4.4	6.5%	-2.7	-5.3%
CCCCCc1ccc(C(=O)CCCC)c(=S)[nH]1	-0.5	-4.3	5.9	-26.6%	-9.4	4.4%
COC(=O)c1ccc(OC(=O)c2cccnc2)cc1	15.1	?	-2.1	-2.9%	10.4	6.5%
COc1cc(OC)c(OC)cc1/C=N/NC(=O)c1ccc(CSc2nc(C)cc(C)n2)cc1	-0.5	-1.6	-2.6	-26.9%[15.4 µM]	6.3	6.8%
COc1cccc(C(NC(C)=O)c2nc(-c3ccc(N(C)C)cc3)cs2)c1 (stereo not drawn)	-3.6	-27.1	-3.5	.	-28.4	.
NC1=NC2(CCCCCC2)n2c(nc3ccccc32)N1	-3.2	-5.1	-3.4	-31.6%	-3.9	-13.7%
COc1ccccc1C(=O)n1nc(-c2ccccc2)nc1NCc1ccco1	-10.2	-7.9	-2.1	16.4%	-3.0	-14.6%
COc1nc(-c2ccccc2)cc(-c2ccccc2)n1	-7.2	23.8	1.0	17.8%	34.2	-7.7%
COc1cc(C(=O)NC(C)c2cccc3ccccc23)cc(OC)c1OC (stereo not drawn)	2.8	-4.6	4.6	-17.0%	1.9	4.7%
O=C(NCCc1ccccc1)C(=O)N/N=C/c1ccc2c(c1)OCO2	-0.6	2.2	-3.0	-15.9%	-9.6	8.9%
O=c1[nH]c2cc3c(cc2cc1CN(Cc1ccccc1)Cc1nnnn1Cc1ccco1)OCCO3	-26.3	-19.1	-1.9	-58.1%[inhibitor]	-7.8	-5.7%
COc1ccc(S(=O)(=O)N2CCOCC2)cc1NC(=O)Cn1nnc2ccccc2c1=O	-15.5	1.0	-1.5	40.8%[15.4 µM]	5.9	-4.5%
CC12CN3CC(C)(CN(C1)C3c1ccc([N+](=O)[O-])o1)C2=O (stereo not drawn)	0.3	7.3	-4.4	?	6.6	13.7%
Cc1nc2cc(F)ccc2n1C1CCN(C(=O)c2c(F)cccc2F)CC1	2.6	-15.6	9.0	2.9%	.	-14.7%
CCOC(=O)c1sc(=NC(=O)c2ccc(C)cc2)n(C)c1C	10.3	7.4	4.7	9.8%[15.4 µM]	-7.3	-11.0%
NC(=O)CC(NC(=O)c1cccc(Br)c1)c1ccc(N2CCC(Br)CC2)c([N+](=O)[O-])c1 (stereo not drawn)	-6.3	-1.5	-3.2	.	-2.6	-1.4%
CC1(C)CC(NC(=O)c2sc3cc(Cl)ccc3c2Cl)CC(C)(C)N1	-11.6	-0.9	1.2	16.4%[15.4 µM]	-8.5	.
CC(C)CC(COCc1ccc([N+](=O)[O-])cc1)N1CCN(C(=O)c2ccc(C(F)(F)F)cc2)CCC1=O (stereo not drawn)	-2.1	-8.1	-1.0	.	-4.5	-18.9%
N#Cc1c(F)cccc1NCCCn1ccnc1	-11.4	-2.7	-2.6	-16.6%[15.4 µM]	-0.9	9.2%
Cc1ccc(-c2csc(NC(=S)NC(=O)c3cc4ccccc4o3)n2)cc1	0.1	1.2	0.7	2.5%	9.0	9.2%
O=c1[nH]c(=S)n2c(c1-c1ccccc1)OC(CBr)C2 (stereo not drawn)	-4.8	6.8	-4.5	-11.1%	0.5	.
CCCCn1c(N)c(N(CC)C(=O)CSCc2ccc(C)cc2)c(=O)[nH]c1=O	3.6	7.6	-1.2	17.2%	-0.1	5.5%
CC1CC(C)CN(c2ncnc3c2cnn3-c2ccc(Cl)cc2)C1 (stereo not drawn)	0.2	0.8	0.3	-103.6%[inhibitor]	9.0	12.3%
N#Cc1ccc(OCC(=O)N2CCN(S(=O)(=O)c3cccs3)CC2)cc1	19.3	1.9	-1.3	-29.7%	4.0	-4.9%
COc1cc(/C=C/C(=O)OCC(=O)NC(=O)NC(C)C)cc(S(=O)(=O)N2CCc3ccccc32)c1OC	-5.1	-6.2	-2.2	1.5%[15.4 µM]	0.0	-10.5%
COc1ccc(-c2csc(NC(=S)NC(=O)c3ccccc3)n2)cc1Br	-10.1	-2.8	-4.3	14.1%[15.4 µM]	-1.8	2.7%
Cc1oc(-c2ccccc2F)nc1CS(=O)CC(=O)NCc1ccc(F)cc1 (stereo not drawn)	-5.6	-1.1	-3.5	3.4%	-11.7	-10.3%
O=C(C1CCC1)N1CCN(S(=O)(=O)c2cccc(F)c2)CC1	-8.6	5.9	0.5	?	0.2	-2.0%
COc1ccccc1N1CCN(S(=O)(=O)c2ccc3c(c2)NC(=O)C(C)C(=O)N3)CC1 (stereo not drawn)	2.5	15.1	3.9	1.2%	23.8	8.2%
COc1ccc(NCc2cc3cc(OC)ccc3[nH]c2=O)cc1	-6.5	?	0.2	-47.3%[inhibitor]	-23.9	?
O=C(CC1(O)C(=O)Nc2ccccc21)c1ccc(-n2cnnn2)cc1 (stereo not drawn)	-8.5	-4.3	-6.4	-10.9%	3.1	-19.4%
COc1cc(/C=N/N2CCN(c3ccc(Cl)cc3)CC2)cc(OC)c1OC(C)=O	-2.2	-6.5	9.6	?	.	2.7%
COc1ccc2[nH]c3c(c2c1)CCN1C(=O)C(CC(=O)NC/C=C(\C)CCC=C(C)C)C[C@H](C(=O)N2CCOCC2)[C@@]31CCC1CCCC1 (stereo partly drawn)	-2.3	6.5	-3.8	.	-10.7	-4.3%
COc1ccccc1NC(=O)Nc1ccnn1C1CCCCC1	10.6	-0.3	-0.4	-7.9%	-1.7	-4.3%
Cc1ccc2nc(C)c(C(=O)O)cc2c1	-4.2	8.6	1.4	-3.5%	13.1	0.2%
CSc1nc(O)c(C2OC(=O)c3ccccc32)c(=O)[nH]1 (stereo not drawn)	-11.3	-0.3	-1.2	24.7%	-0.1	-0.2%
CC(=O)Nc1ccc(-c2cc(-c3ccccc3)nc(-c3ccccc3)n2)cc1	14.9	3.6	2.6	-36.0%[inhibitor]	11.6	6.3%
CC(=O)Nc1ccccc1N(CC(O)Cn1c2ccccc2c2ccccc21)S(=O)(=O)c1ccc(C)cc1 (stereo not drawn)	0.7	-12.0	4.7	-6.7%[15.4 µM]	-0.8	-21.4%
CS(=O)(=O)N1CCCC(C(=O)N2CCOCC2)C1 (stereo not drawn)	-10.6	6.5	-3.0	19.2%	5.2	7.5%
Cc1ccc(N2C(=O)NC(NS(=O)(=O)c3ccccc3)(C(F)(F)F)C2=O)cc1C (stereo not drawn)	-1.2	3.9	-0.4	-51.7%[inhibitor]	3.0	-1.6%
O=C(CCCc1ccccc1)Nc1cccnc1Cl	-10.6	-1.6	3.4	6.5%[15.4 µM]	-9.3	.
Cc1ccc(N(Cc2ccccc2)C(=O)c2cccc(S(=O)(=O)N3CCN(C)CC3)c2)cc1	7.3	-8.8	-3.6	-0.9%	-15.3	1.1%
COc1ccc(N2CC(C(=O)Nc3nnc(C4CCCCC4)s3)CC2=O)cc1 (stereo not drawn)	-2.5	5.7	-4.2	9.6%[15.4 µM]	14.4	-36.9%
COc1ccccc1OCc1ccc(C(=O)NC(C)(C)C)o1	28.5	1.1	4.2	-12.0%	5.6	-9.7%
CCCCCCC(=O)Nc1ccc(Br)cn1	-8.6	10.5	-1.4	?	16.1	5.3%
COc1ccc(/C=C/C(=O)NC2CCCCCCC2)cc1S(=O)(=O)N1CCOCC1	-13.0	0.5	0.5	-3.2%	4.6	-1.4%
O=S(=O)(N/N=C\C=C\c1ccccc1)c1ccc(Cl)cc1	-6.4	-4.0	6.5	3.4%	9.0	-1.6%
Cc1nn(-c2ccccc2)c(C)c1NC(=O)COC(=O)c1cccc(OC(F)F)c1	2.8	3.4	-3.5	-29.9%	1.7	-0.9%
CC(C)C1NC(C(=O)O)Cc2c1[nH]c1ccccc21 (stereo not drawn)	-7.3	0.9	-2.7	5.3%	-2.7	2.1%
COc1cccc(NC(=O)C2CCN(C(=O)[C@@H]3Cc4ccccc4CN3)CC2)c1	-9.8	1.3	-1.0	?	2.0	4.1%
CC1CN(C(=O)c2ccc(COc3ccc(C(C)C)cc3)o2)CC(C)O1 (stereo not drawn)	-8.8	1.4	2.6	-16.9%	3.3	-12.0%
CSc1nc2c(c(=O)[nH]c(=O)n2C)n1C/C=C(\C)Cl	-7.4	0.9	1.1	-16.2%	-20.3	11.1%

Some of these compounds in order of number of heavy atoms, descending.
Structure	D2 PAM	Six1-Eya2 inh	D2 ag	gsp agonist	CtBP-E1A inh	gsp antagonist
CC(=O)Nc1ccccc1N(CC(O)Cn1c2ccccc2c2ccccc21)S(=O)(=O)c1ccc(C)cc1 (stereo not drawn)	0.7	-12.0	4.7	-6.7%[15.4 µM]	-0.8	-21.4%
CSc1nc(O)c(C2OC(=O)c3ccccc32)c(=O)[nH]1 (stereo not drawn)	-11.3	-0.3	-1.2	24.7%	-0.1	-0.2%
CSc1nc2c(c(=O)[nH]c(=O)n2C)n1C/C=C(\C)Cl	-7.4	0.9	1.1	-16.2%	-20.3	11.1%

Compounds as they come (roughly 1.4% active in at least one column).
